# High-throughput results from PubChem BioAssay.
# AF4-AF9 inh – MLL-AF4/AF9 protein interaction inhibition. P42568. AlphaScreen, biotin-AF4 peptide binding to FLAG-AF9. inhibition, % at 10 µM. 350,000 compounds, 0.47% hits. AID 651704;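 active = every replicate reaching a set inhibition limit, whatever the replicate mean, cut at about 25% in these data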;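 note: 0% = plate neutral control median and 100% = total signal loss; the record names both 10 and 1 µM as test concentration; the first replicate is given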
# Target sequence (P42568 whole entry, looked up): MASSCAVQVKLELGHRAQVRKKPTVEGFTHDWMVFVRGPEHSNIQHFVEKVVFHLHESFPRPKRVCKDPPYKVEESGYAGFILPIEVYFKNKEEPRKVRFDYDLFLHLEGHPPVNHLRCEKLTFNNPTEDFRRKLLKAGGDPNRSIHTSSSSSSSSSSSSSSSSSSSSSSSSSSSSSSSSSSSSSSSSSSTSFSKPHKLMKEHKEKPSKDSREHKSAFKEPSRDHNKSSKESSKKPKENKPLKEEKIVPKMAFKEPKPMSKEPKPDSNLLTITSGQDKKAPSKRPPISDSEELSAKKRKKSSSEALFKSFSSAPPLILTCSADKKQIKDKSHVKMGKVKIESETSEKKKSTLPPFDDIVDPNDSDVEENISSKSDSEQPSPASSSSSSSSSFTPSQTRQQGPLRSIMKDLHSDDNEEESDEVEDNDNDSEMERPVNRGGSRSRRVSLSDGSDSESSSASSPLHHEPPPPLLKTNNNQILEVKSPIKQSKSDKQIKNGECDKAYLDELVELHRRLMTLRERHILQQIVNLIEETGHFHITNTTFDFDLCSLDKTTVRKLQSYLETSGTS
# * marks the source's active call; other numbers are inactive results. Only part of the results is shown (hit frequency here may not be typical).
SMILES,AF4-AF9 inh
COc1ccc(NC(=O)C2(C)CCCN(C(C)C)C2)cc1F (stereo not given),0.2
CO[C@H]1CN(C)C(=O)c2ccc(NC(=O)Cc3ccccc3)cc2OC[C@@H](C)NC[C@H]1C,-0.2
O=C(Nc1ccc2c(c1)OCCO2)C1c2ccccc2OCC(=O)N1C1CC1 (stereo not given),0.4
COCC#Cc1ccc2c(c1)O[C@@H](CN(C)C(=O)C1CCC1)[C@H](C)CN([C@H](C)CO)S2(=O)=O,0.9
CCCN1[C@@H]2c3ccc(-c4ccccc4)c(=O)n3C[C@@H]2[C@@H](CO)[C@@H]1C(=O)NCCCN1CCOCC1,-0.2
O=C(NCC[C@H]1CC[C@H](NS(=O)(=O)c2ccccc2)[C@@H](CO)O1)c1ccccc1F,0.9
CCCNC(=O)[C@@H]1N[C@@H]2c3ccc(C4=CCCC4)c(=O)n3C[C@@H]2[C@H]1CO,-16
C[C@@H](NC(=O)C[C@@H]1CC[C@@H](NC(=O)C2CC2)[C@@H](CO)O1)c1ccccc1,0.4
C[C@@H]1CN([C@@H](C)CO)C(=O)c2cc(NC(=O)NC3CCCCC3)ccc2O[C@H]1CN(C)Cc1ccc2c(c1)OCO2,-0.6
CCC(=O)N[C@@H]1C=C[C@H](CC(=O)NCCN2CCCCC2)O[C@@H]1CO,-1.4
Oc1ccc(C[C@H]2CNC(=S)N2CC2CCCN2C[C@H](Cc2ccc(O)cc2)N2C[C@H](Cc3ccc(O)cc3)N(CC3CCCCCC3)C2=S)cc1 (stereo not given in full),-0.9
CC(C)CC#Cc1ccc2c(c1)O[C@@H](CN(C)C(=O)c1ccccc1)[C@H](C)CN([C@@H](C)CO)S2(=O)=O,2.7
CCN(C[C@H]1N[C@H](CO)[C@H]1c1ccccc1)C(=O)c1ccncc1,0.3
COc1ccc(-n2c(N)cc(=O)nc2SCC(=O)NC2CCCCC2)cc1,2.8
Cc1noc(C)c1NC(=O)Nc1cccc2c1O[C@@H](CN(C)C)[C@H](C)CN([C@@H](C)CO)C2=O,-0.8
C[C@@H]1CN([C@@H](C)CO)C(=O)c2cc(NC(=O)CCCCCC(=O)Nc3ccccc3N)ccc2O[C@H]1CN(C)S(C)(=O)=O,-0.8
C[C@H](CO)N1C[C@H](C)[C@H](CN(C)C)OCCCC[C@H](C)Oc2ccc(NC(=O)Nc3ccc4c(c3)OCO4)cc2C1=O,6.6
COCC(=O)N(C)C[C@H]1Oc2ncc(C#Cc3ccc(F)cc3)cc2C(=O)N([C@H](C)CO)C[C@H]1C,-2.0
Cc1noc(C)c1S(=O)(=O)N(C)C[C@@H]1Oc2ccc(NC(=O)Cn3cnnn3)cc2CC(=O)N([C@@H](C)CO)C[C@H]1C,-0.1
Cc1ccc2nc(C3CCCCC3)c(Cc3cccc(Cl)c3)n2c1,2.4
CC(C)NC(=O)N1CC2(C1)[C@H](c1ccccc1)[C@@H](CO)N2C(=O)c1ccccn1,-1.3
CO[C@H]1CC[C@H]2CCOc3ccc(C#N)cc3C(=O)N(C)C[C@H](OC)[C@@H](C)C(=O)N(C)C[C@@H]1O2,2.3
O=C(NCc1ccccn1)[C@H]1[C@H](CO)[C@H]2Cn3c(cccc3=O)[C@@H]1N2CC1CCCC1,-2.7
C[C@@H]1CN([C@@H](C)CO)C(=O)Cc2cc(NC(=O)c3ccncc3)ccc2O[C@H]1CN(C)S(=O)(=O)c1ccc(F)cc1,0.1
C[C@@H]1CN([C@@H](C)CO)C(=O)Cc2cc(NS(C)(=O)=O)ccc2O[C@@H]1CN(C)Cc1ccc(C(=O)Nc2ccccc2N)cc1,-1.4
CC(=NNc1nc2ccccc2s1)c1ncccn1,0.9
COCC(=O)N1CCCCN2[C@@H](CO)[C@@H](c3ccc(-c4ccc(F)cc4)cc3)[C@@H]2C1,0.4
CNc1ncnc2c1ncn2[C@H]1CN(Cc2cccc3ccccc23)C[C@@H](CO)O1,0.4
C[C@@H]1CCCCO[C@@H](CN(C)C(=O)c2ccccc2)[C@@H](C)CN([C@H](C)CO)C(=O)c2cc(NS(=O)(=O)c3ccccc3)ccc2O1,2.2
C[C@H](CO)N1C[C@H](C)[C@H](CN(C)C(=O)Nc2ccc(F)cc2)Oc2ccc(NC(=O)CCCCCC(=O)Nc3ccccc3N)cc2CC1=O,-0.2
C[C@@H]1CN([C@H](C)CO)C(=O)c2cc(NC(=O)Nc3cccc4ccccc34)ccc2O[C@@H](C)CCCCO[C@H]1CN(C)S(=O)(=O)c1ccccc1,-9.4
Cc1cc(Cl)ccc1C(O)c1ncc(-c2cccc(C(F)(F)F)c2)[nH]1 (stereo not given),9.8
COc1ccc(S(=O)(=O)Nc2cc3c4c(c2)CC(=O)N4CCC3)cc1OC,-10
COc1ccc(S(=O)(=O)Nc2ccc3c(c2)CC(=O)N([C@@H](C)CO)C[C@@H](C)[C@@H](CN(C)CC2CCCCC2)O3)cc1,1.8
CCc1cnc(N2[C@H](CO)[C@H](c3ccc(C#CC(C)C)cc3)[C@@H]2C#N)s1,-0.6
O=C(C[C@H]1C=C[C@@H](NC(=O)C2CCOCC2)[C@H](CO)O1)NCc1ccncc1,0.1
CC(C)NC(=O)N(C)C[C@H]1Oc2ncc(C#CCc3ccccc3)cc2C(=O)N([C@@H](C)CO)C[C@@H]1C,-2.1
O=C(c1cccc(F)c1)N1C[C@@H]2[C@H](c3ccccc31)[C@@H](CO)N2C(=O)C1CCOCC1,2.0
Cc1cccc(CNC(=O)Nc2nnc([C@@H]3C[C@H](O)[C@@H](CO)O3)s2)c1,-3.2
CC(C)CC#Cc1cnc2c(c1)C(=O)N([C@H](C)CO)C[C@@H](C)[C@H](CN(C)C(=O)NC1CCCC1)O2,-2.4

# Sorted by value in AF4-AF9 inh (high to low): some entries from above
SMILES,AF4-AF9 inh
Cc1cc(Cl)ccc1C(O)c1ncc(-c2cccc(C(F)(F)F)c2)[nH]1 (stereo not given),9.8
CNc1ncnc2c1ncn2[C@H]1CN(Cc2cccc3ccccc23)C[C@@H](CO)O1,0.4
CCCN1[C@@H]2c3ccc(-c4ccccc4)c(=O)n3C[C@@H]2[C@@H](CO)[C@@H]1C(=O)NCCCN1CCOCC1,-0.2

# 3 entries drawn at random from those above, as already listed:
SMILES,AF4-AF9 inh
C[C@@H]1CN([C@@H](C)CO)C(=O)Cc2cc(NS(C)(=O)=O)ccc2O[C@@H]1CN(C)Cc1ccc(C(=O)Nc2ccccc2N)cc1,-1.4
CC(C)CC#Cc1cnc2c(c1)C(=O)N([C@H](C)CO)C[C@@H](C)[C@H](CN(C)C(=O)NC1CCCC1)O2,-2.4
Oc1ccc(C[C@H]2CNC(=S)N2CC2CCCN2C[C@H](Cc2ccc(O)cc2)N2C[C@H](Cc3ccc(O)cc3)N(CC3CCCCCC3)C2=S)cc1 (stereo not given in full),-0.9

# The results go on.
SMILES,AF4-AF9 inh
COCCNC(=O)C1(C)CCN(C(=O)c2ccc3ccccc3n2)C1 (stereo not given),-2.7
CNC(=O)C[C@@H]1CC[C@H]2[C@@H](COC[C@@H](O)CN2S(=O)(=O)c2cccc(Cl)c2)O1,2.1
Cc1ccc(CN2CC(=O)N3[C@@H](CO)[C@@H](c4ccc(Br)cc4)[C@@H]3C2)cc1,3.2
C[C@H]1CN([C@@H](C)CO)C(=O)c2cccc(NS(=O)(=O)c3cccs3)c2O[C@@H]1CN(C)C(=O)Nc1cccc2ccccc12,2.9
O=C(C[C@H]1CC[C@@H]2[C@H](COC[C@@H](O)CN2C(=O)c2cccnc2)O1)NCC1CC1,-1.0
CCCC(=O)Nc1ccc2c(c1)OC[C@H](C)N(C(=O)CC1CC1)C[C@@H](C)[C@H](OC)CN(C)C2=O,-1.4
CCN1[C@@H]2c3ccc(C4=CCCCC4)c(=O)n3C[C@H]1[C@H](CO)[C@H]2C(=O)NC1Cc2ccccc2C1,2.5
CN1[C@@H]2c3ccc(/C=C/c4ccccc4)c(=O)n3C[C@@H]2[C@@H](CO)[C@@H]1C(=O)N1CCOCC1,-1.5
COc1ccc2c3c(n(C)c2c1)[C@H](CO)N(C(=O)c1ccncc1)CC31CN(S(C)(=O)=O)C1,-2.8
C[C@H]1CN([C@@H](C)CO)C(=O)c2cccc(NC(=O)Nc3ccc4c(c3)OCO4)c2O[C@H]1CN(C)Cc1ccc(C(F)(F)F)cc1,3.8
C[C@H]1CN([C@@H](C)CO)C(=O)c2cc(C3=CCCCC3)cnc2O[C@@H]1CN(C)S(=O)(=O)c1cn(C)cn1,-2.0
C[C@@H]1CN([C@H](C)CO)C(=O)c2cc(-c3ccncc3)cnc2O[C@@H]1CN(C)S(=O)(=O)c1ccccc1,-4.8
COc1cccc(-c2cnc(C(O)c3c(C)cc(C)cc3C)[nH]2)c1 (stereo not given),4.0
C[C@H](CO)N1C[C@H](C)[C@H](CN(C)Cc2ccncc2)Oc2c(NC(=O)C3CC3)cccc2C1=O,-5.0
C[C@H]1CN([C@@H](C)CO)S(=O)(=O)c2ccc(C#Cc3ccccc3)cc2O[C@H]1CN(C)C(=O)C1CC1,-0.9
Cn1cnc(S(=O)(=O)N[C@H]2CC[C@@H](CC(=O)N3CCN(c4ccccc4)CC3)O[C@H]2CO)c1,-1.3
Cc1noc(C)c1NC(=O)N(C)C[C@@H]1Oc2ccc(NS(=O)(=O)c3ccc(Cl)cc3)cc2C(=O)N([C@@H](C)CO)C[C@H]1C,-1.8
CO[C@@H]1CN(C)C(=O)c2cc(NC(=O)C3CCCCC3)ccc2OC[C@@H](C)N(C)C[C@@H]1C,-1.2
CN(C)C(=O)c1ccc(-c2ccc([C@H]3[C@@H](CO)N4CCCCN(CCC(F)(F)F)C[C@@H]34)cc2)cc1,0.9
C[C@@H]1CN([C@H](C)CO)C(=O)c2cc(C#CC3(O)CCCC3)cnc2O[C@@H]1CN(C)Cc1cccnc1,-3.3
C[C@@H]1CN([C@H](C)CO)C(=O)Cc2cc(NC(=O)C3CCCCC3)ccc2O[C@H]1CN(C)C(=O)Nc1cccc2ccccc12,-1.6
COc1cccc(S(=O)(=O)Nc2ccc3c(c2)C(=O)N(C)[C@H]2CC[C@@H](CC(=O)NCC4CCCCC4)O[C@@H]2CO3)c1,-0.1
COc1ccc(NC(=O)Nc2ccc3c(c2)C(=O)N([C@H](C)CO)C[C@H](C)[C@@H](CN(C)C(=O)NC2CCCCC2)OCCCC[C@H](C)O3)cc1,-5.1
COc1ccc(S(=O)(=O)N(C)C[C@H]2Oc3ccc(NC(=O)NC4CCCCC4)cc3CC(=O)N([C@@H](C)CO)C[C@H]2C)cc1,0.6
C[C@@H]1CCCCO[C@@H](CN(C)C(=O)Nc2ccc(F)cc2)[C@H](C)CN([C@H](C)CO)C(=O)c2cc(N(C)C)ccc2O1,8.0
CCCCC[C@@H]1[C@H]2[C@H]3C(=O)N(c4ccccc4)C(=O)[C@H]3CC(=O)[C@H]2[C@H](c2ccccc2)N1S(=O)(=O)c1ccc(C)cc1,3.2
O=C(C[C@@H]1CC[C@@H]2[C@H](COC[C@@H](O)CN2C(=O)c2ccccc2F)O1)NCc1ccccc1,-2.0
CO[C@H]1CN(C)C(=O)c2cc(NC(=O)Nc3ccccc3F)ccc2OC[C@@H](C)N(C(C)=O)C[C@@H]1C,-2.8
CC(C)NC(=O)N(C)C[C@H]1Oc2cc(-c3cncnc3)ccc2S(=O)(=O)N([C@H](C)CO)C[C@H]1C,-0.8
CN1C(=O)c2cc(NC(=O)c3cccc(C(F)(F)F)c3)ccc2OC[C@@H]2O[C@@H](CC(=O)NCCN3CCCC3)CC[C@@H]21,5.0

# Gathered by group, those above with a CF3 group.
SMILES,AF4-AF9 inh
Cc1cc(Cl)ccc1C(O)c1ncc(-c2cccc(C(F)(F)F)c2)[nH]1 (stereo not given),9.8
C[C@H]1CN([C@@H](C)CO)C(=O)c2cccc(NC(=O)Nc3ccc4c(c3)OCO4)c2O[C@H]1CN(C)Cc1ccc(C(F)(F)F)cc1,3.8
CN(C)C(=O)c1ccc(-c2ccc([C@H]3[C@@H](CO)N4CCCCN(CCC(F)(F)F)C[C@@H]34)cc2)cc1,0.9
CN1C(=O)c2cc(NC(=O)c3cccc(C(F)(F)F)c3)ccc2OC[C@@H]2O[C@@H](CC(=O)NCCN3CCCC3)CC[C@@H]21,5.0

# (further entries)
SMILES,AF4-AF9 inh
CC(C)NC(=O)N(C)C[C@H]1Oc2cc(-c3ccccc3F)ccc2S(=O)(=O)N([C@@H](C)CO)C[C@@H]1C,-0.3
CCNC(=O)c1cc2c(c(-c3cccc(C4=CCCC4)c3)n1)[C@H](CCO)N([S@@](=O)C(C)(C)C)C2,-6.6
C[C@@H]1CN([C@H](C)CO)C(=O)Cc2cc(NS(=O)(=O)c3ccc(F)cc3)ccc2O[C@@H]1CN(C)S(C)(=O)=O,-1.8
CC(=O)C[C@@H]1OC[C@H](C(C)C)N1S(=O)(=O)c1ccc(C)cc1,-2.7
COc1ccc(NC(=O)N(C)C[C@H]2OCc3ccccc3-c3c(n(C)c4ccccc34)C(=O)N([C@@H](C)CO)C[C@@H]2C)cc1,-1.0
CC(C)OC(=O)N(C)C[C@@H]1OCc2ccccc2-c2ccccc2C(=O)N([C@H](C)CO)C[C@H]1C,0.2
O=C(C[C@@H]1CC[C@@H]2[C@H](COC[C@H](O)CN2Cc2ccc(Cl)cc2)O1)NCc1cccc(F)c1,-0.8
O=C(CCN1CCCCC1)NCC[C@H]1CC[C@H](NC(=O)c2ccc(F)cc2)[C@H](CO)O1,-4.3
CS(=O)(=O)N1CC(=O)N2[C@@H](CO)[C@H](c3ccc(Br)cc3)[C@@H]2C1,-5.8
CC1=C(C(=O)N2CCOCC2)CC(CC(=O)NCCCN(C)C)C(=O)N1CCCN1CCCC1=O (stereo not given),-0.4
CO[C@H]1CN(C)C(=O)c2cc(NS(=O)(=O)c3ccc(Cl)cc3)ccc2OC[C@@H](C)NC[C@H]1C,-0.9
CN1C[C@@H]2[C@H](c3ccccc31)[C@H](CO)N2Cc1ccccc1F,-2.6
COc1ccc(S(=O)(=O)Nc2ccc3c(c2)C(=O)N([C@H](C)CO)C[C@@H](C)[C@@H](CN(C)S(=O)(=O)c2ccc(C)cc2)OCCCC[C@@H](C)O3)cc1,0.3
CC(=O)N(C)C[C@@H]1Oc2ncc(C#CC(C)(C)O)cc2C(=O)N([C@H](C)CO)C[C@H]1C,-15
CNC[C@H]1Oc2ccc(NS(=O)(=O)c3ccc(Cl)cc3)cc2C(=O)N([C@@H](C)CO)C[C@H]1C,-4.6
Cc1ccc(C(O)c2ncc(-c3ccccc3C)[nH]2)cc1F (stereo not given),3.9
